# Env fusion inh: inhibitors of HIV Env-mediated cell fusion; 1.1% of 360,000 active; HeLa-JRFL Env/CEM21 cell fusion, luciferase; inhibition, % at 12.3 µM;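 active means mean replicate inhibition score of at least 50 and every replicate individually at or above 50; inconclusive means only one of the two criteria met; inactive means mean below 50 and not all replicates reaching 50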;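 further: 0% = plate neutral controls and 100% = maraviroc near 300 nM; one replicate is shown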
# Yeast UUG start: alters start codon recognition fidelity in yeast. AID 602363. 0.13% of 350,000 active. S. cerevisiae UUG-firefly luciferase reporter, luminescence/redox ratio. activity score, % at 18.7 µM;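 active means replicate mean at a twofold rise or more, about +100% in these data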;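 further: firefly luciferase made from a UUG start codon reports start codon fidelity; reporter light over untreated wells divided by growth signal over untreated wells; some hits fall short of that in this replicate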
# PABP FP inh: blocks human PABP binding to poly(A) RNA. AID 2014. P11940. fluorescence polarization. inhibition, % at 35 µM. 1% of 290,000 active;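 active means 50% or more with normal probe brightness, or confirmed in later tests; inconclusive means above 50% with abnormal brightness, or retests that disagree; inactive means below 50% or failed in later tests; about a fifth of its hits are not listed in these tables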;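 further: calls also rest on retests at 20 µM and on dose response follow-up; controls were probe without protein and protein plus probe with vehicle; some compounds called inactive have numbers as strong as hits; many hits fall short of the cut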
# Target sequence (P11940 whole entry, looked up): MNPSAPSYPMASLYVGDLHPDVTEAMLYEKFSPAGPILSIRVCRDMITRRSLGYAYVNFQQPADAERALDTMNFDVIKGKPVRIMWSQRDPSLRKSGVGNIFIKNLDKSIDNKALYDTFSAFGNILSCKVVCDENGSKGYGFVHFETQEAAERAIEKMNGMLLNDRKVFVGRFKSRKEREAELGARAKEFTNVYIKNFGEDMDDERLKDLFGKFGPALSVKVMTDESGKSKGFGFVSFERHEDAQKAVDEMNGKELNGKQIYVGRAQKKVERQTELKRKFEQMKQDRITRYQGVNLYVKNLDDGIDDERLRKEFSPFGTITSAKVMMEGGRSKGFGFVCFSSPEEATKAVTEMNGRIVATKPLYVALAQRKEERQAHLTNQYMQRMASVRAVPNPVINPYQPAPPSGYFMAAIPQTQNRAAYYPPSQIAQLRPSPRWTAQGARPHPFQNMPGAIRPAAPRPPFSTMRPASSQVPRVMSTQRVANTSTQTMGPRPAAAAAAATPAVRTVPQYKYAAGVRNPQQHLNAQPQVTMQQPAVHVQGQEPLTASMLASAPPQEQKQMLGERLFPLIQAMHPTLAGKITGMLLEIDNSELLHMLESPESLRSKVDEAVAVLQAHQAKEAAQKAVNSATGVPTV
# Rce1 inh: inhibitors of yeast Ras-converting enzyme. Q03530. yeast membranes, quenched prenylated peptide cleavage fluorescence. calls only. 0.27% of 290,000 active;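 active means fall in fluorescence gain of 50% or more versus controls, with final raw signal at or below 3038400; inconclusive means same 50% fall but final raw signal above 3038400; inactive means fall in fluorescence gain under 50%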;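 further: plate controls were neutral control wells for no effect and wells lacking membranes for full effect; tested at 10 µM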
# Target sequence (Q03530 whole entry, looked up): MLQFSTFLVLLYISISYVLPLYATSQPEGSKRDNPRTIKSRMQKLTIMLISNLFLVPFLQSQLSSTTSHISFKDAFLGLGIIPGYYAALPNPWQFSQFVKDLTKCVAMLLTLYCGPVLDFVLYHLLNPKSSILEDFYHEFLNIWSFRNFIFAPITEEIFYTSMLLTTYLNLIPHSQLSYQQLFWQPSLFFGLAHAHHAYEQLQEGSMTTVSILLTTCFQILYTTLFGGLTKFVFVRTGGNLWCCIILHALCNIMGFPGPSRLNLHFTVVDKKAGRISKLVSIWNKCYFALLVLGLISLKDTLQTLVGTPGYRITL
# MT1-MMP act inh: blocks activation of human MT1-MMP; P50281; HT1080 RFP-PRO-GFP cells, GFP/RFP ratio fluorescence, overnight; percent of plate control window, DMSO zero; GFP/RFP ratio change, % at 20 µM; 0.061% of 360,000 active; AID 651647;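 active means GFP/RFP ratio change of at least 30% with cell ATP level not reduced by more than half and red fluorescence within 50% of control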; further: strong numbers were not always called active
#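 Material: RFP-PRO-GFP reporter HT1080 cells. Dosing: single-point 20 µM compound, 1% DMSO. Controls: DMSO and RFP-L50D-GFP cell wells. Timing: cells overnight before dosing, compound overnight, 37 °C, 5% CO2. Measure: GFP/RFP fluorescence ratio.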
# eIF4H inh: inhibitors of RNA binding by human eIF4H; Q15056; eIF4H fluorescence polarization binding assay; inhibition, % at 35 µM; 0.94% of 290,000 active; AID 2012;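 active means 50% or more with normal probe brightness, or confirmed in later tests; inconclusive means above 50% with abnormal brightness, or retests that disagree; inactive means below 50% or failed in later tests; about a fifth of its hits are not listed in these tables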;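 further: calls also rest on retests at 20 µM and on dose response follow-up; 0% = protein and probe with vehicle and 100% = probe without protein; strong numbers were not always called active; many hits fall short of the cut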
# CSC inhib: blocks cancer stem cells. cancer stem cell-like cells viability, luminescence. inhibition, % at 7.5 µM. 1.1% of 300,000 active. AID 2717;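 active means mean at 75% or more and at least half the replicates too; inconclusive means mean and replicates disagree; tested in HMLE shEcad cells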;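 further: 0% = median of negative and 100% = median of positive control wells; the first replicate is given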
# eIF4H inh retest: also measured in eIF4H inh; calls as there; inhibition, %; compound at 20 µM; confirmation average;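 mean of two retest wells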
# PABP FP inh retest: also measured in PABP FP inh; calls as there; inhibition, %; compound at 20 µM; confirmation repeats;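 mean of two retest wells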
# MT1-MMP act inh RFP: further read-out of MT1-MMP act inh, marked with its call; RFP signal change, %; measured here: RFP expression control read;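 0 = vehicle wells; hits needed this value within 50% of zero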
# Numbers without * were called inactive; i = inactive; ? = inconclusive; . = no result given; & = joins results of further samples; [ ] = remark or other dose.
SMILES,Env fusion inh,Yeast UUG start,PABP FP inh,Rce1 inh,MT1-MMP act inh,MT1-MMP act inh RFP,eIF4H inh,CSC inhib,others
COc1ccc(CNC(=O)COC(=O)c2cc(S(=O)(=O)N3CCOCC3)ccc2O)cc1OC,-48,-17,.,.,11,5,.,-11,
COC(=O)c1[nH]c2ccccc2c1Sc1ccccc1,-17,-17,-4,i,-2,-2,-3,24,
CCOc1cc(/C=C/C(=O)c2ccc3c(c2)OCCO3)ccc1OCC(=O)N(C)C,-66,7,-1,i,-5,-11,0,.,
COC(=O)c1sc(C(F)(F)F)c(-c2ccccc2)c1S(=O)(=O)NC(C)(C)C,38,0,0,i,3,0,6,-4,
CN1C(=S)SC(/[N+]([O-])=C/c2ccc(Cl)cc2)C1(C)C (stereo unspecified),-56,-17,-10,i,4,3,-5,.,
CC12CCC(=O)N1C(C(=O)OCC(=O)Nc1cccc(S(=O)(=O)N3CCCCCC3)c1)CS2 (stereo unspecified),.,-4,-11,i,2,3,-6,0,
COCCn1c(SCC(=O)Nc2sc(C)c(C)c2C#N)nnc1-c1ccc(OC)cc1,-30,-9,25,i,0,3,43,-9,
COc1ccc(/C=N/N=C2/NC(=O)C(CC(=O)NC(C)C)S2)cc1 (stereo unspecified),-10,.,2,i,1,6,-6,1,
CC(OC(=O)Cn1cnc2c1c(=O)n(C)c(=O)n2C)C(=O)N(C)c1ccccc1 (stereo unspecified),11,-7,.,i,-3,-1,.,-6,
CCCCC(=O)N1C(C)CCC1C (stereo unspecified),6,-14,.,.,2,2,.,.,
CC(=O)C1CCC2C3CCC4CC(=O)CCC4(C)C3C(O)CC12C (stereo unspecified),8,2,.,.,0,-3,.,.,
COCCOC(=O)c1[nH]c2c(c1C)C(=O)CC(c1ccc(F)cc1)C2 (stereo unspecified),-31,-4,0,i,-6,-16,3,50,

# Brought forward from above: seven entries; new compounds follow.
SMILES,Env fusion inh,Yeast UUG start,PABP FP inh,Rce1 inh,MT1-MMP act inh,MT1-MMP act inh RFP,eIF4H inh,CSC inhib,others
CC12CCC(=O)N1C(C(=O)OCC(=O)Nc1cccc(S(=O)(=O)N3CCCCCC3)c1)CS2 (stereo unspecified),.,-4,-11,i,2,3,-6,0,
COCCn1c(SCC(=O)Nc2sc(C)c(C)c2C#N)nnc1-c1ccc(OC)cc1,-30,-9,25,i,0,3,43,-9,
COc1ccc(/C=N/N=C2/NC(=O)C(CC(=O)NC(C)C)S2)cc1 (stereo unspecified),-10,.,2,i,1,6,-6,1,
CC(OC(=O)Cn1cnc2c1c(=O)n(C)c(=O)n2C)C(=O)N(C)c1ccccc1 (stereo unspecified),11,-7,.,i,-3,-1,.,-6,
CCCCC(=O)N1C(C)CCC1C (stereo unspecified),6,-14,.,.,2,2,.,.,
CC(=O)C1CCC2C3CCC4CC(=O)CCC4(C)C3C(O)CC12C (stereo unspecified),8,2,.,.,0,-3,.,.,
COCCOC(=O)c1[nH]c2c(c1C)C(=O)CC(c1ccc(F)cc1)C2 (stereo unspecified),-31,-4,0,i,-6,-16,3,50,
CC1=C(C(=O)N2CCOCC2)CC(CC(=O)NC2CCCC2)C(=O)N1Cc1ccc(C(C)(C)C)cc1 (stereo unspecified),14,15,.,.,2,3,.,.,
Cc1ccc(Cn2nc(C)c(C(=O)NCC(c3cccs3)N3CCOCC3)c2Cl)cc1 (stereo unspecified),6,-5,.,i,5,-1,.,3,
O=C(Cn1cnc2cc([N+](=O)[O-])ccc2c1=O)Nc1cccc(S(=O)(=O)N2CCCCC2)c1,15,-12,.,.,0,-14,.,.,
O=[N+]([O-])c1ccc(O)c(/C=N/n2cnnc2)c1,-75,-12,-4,i,4,3,-4,.,
CCCCNC(=O)/C=C1\Sc2ccccc2NC1=O,-32,-1,5,i,2,3,-7,-1,
CNC(=O)Nc1ccccc1NC(=O)NC,-77,-2,0,i,0,0,-4,4,
COc1ccc(C(=O)NCC2OCCc3ccccc32)cc1OC (stereo unspecified),13,.,7,.,3,0,9,-3,
CC(C)Nc1nc(Oc2ccc(Cl)cc2)cc(C(F)(F)F)n1,-48,-15,-8,i,-2,-2,8,20,
O=C(c1ccccc1Cl)N1CCN(S(=O)(=O)N2CCCCC2)CC1,1,-14,11,i,-3,1,5,7,
O=S(=O)(NCCc1ccccc1)c1ccc(Br)s1,-13,-5,4,i,-2,-1,-1,4,
CCn1c(SCC(=O)NNC(=O)c2ccc(C)cc2)nnc1-c1ccncc1,-14,-8,.,i,1,2,.,6,
Cc1ccc(S(=O)(=O)N2C[C@H]3[C@H]4C(=O)N(c5ccccc5)C(=O)[C@H]4C[C@H](OC(=O)NC4CCCC4)[C@@]3(O)C2)cc1,11,22,.,.,5,7,.,.,

# 4 compounds picked at random from those above, as already listed:
SMILES,Env fusion inh,Yeast UUG start,PABP FP inh,Rce1 inh,MT1-MMP act inh,MT1-MMP act inh RFP,eIF4H inh,CSC inhib,others
CNC(=O)Nc1ccccc1NC(=O)NC,-77,-2,0,i,0,0,-4,4,
COc1ccc(C(=O)NCC2OCCc3ccccc32)cc1OC (stereo unspecified),13,.,7,.,3,0,9,-3,
CCCCNC(=O)/C=C1\Sc2ccccc2NC1=O,-32,-1,5,i,2,3,-7,-1,
O=C(c1ccccc1Cl)N1CCN(S(=O)(=O)N2CCCCC2)CC1,1,-14,11,i,-3,1,5,7,

# (cont.)
SMILES,Env fusion inh,Yeast UUG start,PABP FP inh,Rce1 inh,MT1-MMP act inh,MT1-MMP act inh RFP,eIF4H inh,CSC inhib,others
CCS(=O)(=O)NCC(c1cccnc1)N1CCN(c2ccccc2OC)CC1 (stereo unspecified),-36,26,72,i,2,4,-6,-10,eIF4H inh retest=-2;PABP FP inh retest=3
O=C(O)CCN1c2cccc3cccc(c23)S1(=O)=O,2,-13,-2,i,4,9,0,.,
COCC(=O)N(C)C[C@H]1Oc2ncc(C#C[C@H](C)O)cc2C(=O)N([C@@H](C)CO)C[C@H]1C,-79&-18[16.7 µM],4&6&7,.,.,5,5,.,.,
CCC(=O)N1CCN(c2c(Cl)cccc2[N+](=O)[O-])CC1,.,-18,-4,i,1,1,5,3,
COc1ccc(C(=O)NCc2ccc(N3CCN(C)CC3)cc2)cc1,15,-15,-3,i,-1,-1,4,.,
CCOC(=O)C1(CC2CCCCO2)CCN(Cc2nc3ccccc3[nH]2)CC1 (stereo unspecified),17,-16,1,i,-1,3,-2,-1,
COc1cc(CNc2ccc(C(=O)O)cc2)cc(Br)c1OCC(=O)NC(C)(C)C,.,.,-11,i,2,3,-5,4,
COc1ccc(C2=NOC(C(=O)NCCCn3ccnc3)C2)cc1 (stereo unspecified),-20,-7,-1,i,-4,1,1,-7,
Cc1ccc(NC(=O)c2ccccc2OCC(=O)c2ccccc2)cc1,-61,-8,-8,i,2,1,-5,-17,
O=C(CSc1nnc(-c2cc3ccccc3cc2O)n1Cc1ccco1)N1CCc2ccccc2C1,?,-19,7,i,-14,-15,-11,-6,
CCc1cc(=O)oc2cc(C)cc(OC(C)C(=O)NC3CC(C)(C)NC(C)(C)C3)c12 (stereo unspecified),-24,8,-15,i,4,3,-7,-8,
FC(F)(F)c1nc(-c2ccncc2)ncc1-c1nnnn1-c1ccccc1,-18,.,5,i,-4,-6,9,-2,
COC(=O)CSc1nnc(-c2cccnc2)o1,17,-14,0,i,3,11,-16,-3,
CN1CCN(c2nc(-c3ccccc3)nc(-c3ccccc3)c2C#N)CC1,9,.,-4,i,-5,-7,-3,4,
CCC1(c2ccccc2)ON(c2c(Br)cccc2Br)C1=O (stereo unspecified),2,-18,.,.,1,4,.,43,
Cc1cc(/C=N/NC(=O)c2cccc([N+](=O)[O-])c2)c(C)n1-c1ccccc1,-26,.,-8,.,5,4,-10,10,
COc1ccc(S(=O)(=O)C(C#N)c2nc3ccccc3nc2N2CCC(C)CC2)cc1 (stereo unspecified),.,.,108*,i,.,.,64*,49,
O=C(Cc1ccc(F)cc1)Nc1ccccc1N1CCCC1,-5,2,-4,i,-2,1,-6,6,
CSc1ccccc1NC(=O)CN(C)CC(=O)NCC(=O)Nc1ccc(F)cc1,-1,-18,.,i,3,-1,.,-2,
COc1ccc(CN2CCCCCC2)c(C)c1C,-31,.,-8,i,8,6,-10,-11,
CCCCOc1ccc(S(=O)(=O)N2CCCCC2)cc1,2,-14,5,i,6,-4,-5,10,
O=C(CCc1ccccc1)NCCSc1ccccc1,-2,-10,-7,i,8,7,-4,1,
O=C(COc1ccc(S(=O)(=O)N2CCOCC2)cc1Cl)NCc1ccco1,13,-14,4,i,2,5,-5,-4,
COc1cc([N+](=O)[O-])ccc1NC(=O)c1cccc(NC(=O)C(C)C)c1,6,.,10,i,-2,-2,8,-2,
CN(C)/C=C1\NC(=S)N(c2ccccc2)C1=O,7,.,6,.,-3,-1,2,-2,
CCOC(=O)c1ccc(NC(=S)NNC(=O)COC)cc1,8,-20,50,i,1,2,6,0,
CC(OC(=O)CNC(=O)c1sc2ccccc2c1Cl)C(=O)NC1(C#N)CCCCC1 (stereo unspecified),-6,7,.,.,2,4,.,.,
Cc1cc(C)cc(NC(=O)Cn2c(=O)oc3cc(S(=O)(=O)N4CCC(C)CC4)ccc32)c1,-7,-17,6,i,-8,-21,0,-15,
Cc1ccc(S(=O)(=O)NC(=O)C2(C)CCN2C(=O)c2c(C)noc2C)cc1 (stereo unspecified),-8,-22,.,.,-1,3,.,.,
O=C(CCN1C(=O)/C(=C/c2cccc(Br)c2)SC1=S)Nc1cccnc1,-6,.,-16,i,1,3,-13,22,
COc1cccc(CC(NC(C)=O)C(=O)NC2CCN(c3c(Cc4ccccc4)c(C)nc4ncnn34)CC2)c1OC (stereo unspecified),-16,.,10,i,1,6,-1,-8,
CCCN1CCC(=O)N(CCSc2ccc(OC)cc2)CC1,-120,-20,-4,i,-3,-11,9,17,
COc1ccc(NS(=O)(=O)c2ccc(-c3ccccn3)s2)cc1,3,6,.,i,2,-10,.,3,
COc1cc(/C=N/NC(=O)c2ccncc2)ccc1OC(=O)c1ccc([N+](=O)[O-])cc1,.,.,13,i,1,4,-5,-7,
c1ccc(CSc2nnc(-c3ccco3)c(-c3ccco3)n2)cc1,.,.,75*,i,1,1,95*,5,
CC1CCCCC12NC(=O)N(CC(=O)NCc1ccco1)C2=O (stereo unspecified),0,-6,.,.,-1,1,.,.,
COc1ccccc1NC(=O)CSc1ccc(-c2cccs2)nn1,9,.,-7,i,3,-4,-6,3,
CC(C)OC(=O)CSc1nnc(-c2ccc([N+](=O)[O-])cc2)o1,-71,-1,-1,i,-3,0,-4,8,
COc1ccc(NC(=O)C2CCCN2C(=O)Nc2ccc(OC)cc2)cc1 (stereo unspecified),5,-3,4,i,-1,3,-17,.,
C=CCc1cccc2cc(C(=O)N(CC)CC)c(=O)oc12,-51,-11,-2,i,-2,0,-3,-2,
COCCNC(=O)c1onc(CSc2cc(C)ccc2C)c1C(=O)O,11,3,2,i,1,3,-10,-2,
COc1cc(/C=C/C(=O)O)cc(Br)c1O,-5,-13,6,i,3,6,-3,1,
Cc1ccccc1-n1c(=O)[nH]c(=O)c2c(N)c(C(=O)c3ccc(Cl)cc3)sc21,27,.,-2,i,-12,-15,2,-15,
CCOc1ccc(-c2nnn(CCC(=O)O)n2)cc1OC,-65,-18,9,i,9,3,2,-10,

# Screening data (PubChem)
